Assay outcomes from PubChem.
HIV Env fusion = inhibitors of HIV-1 Env-driven cell-cell fusion, primary screen, HeLa-JRFL effector, CEM21 target cells, luciferase | inhibition, % at 12.3 µM | 1.1% of 360,000 active | AID 651610, 2012;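 active means mean replicate inhibition score of at least 50 and every replicate individually at or above 50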;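 further: 0% = plate neutral controls and 100% = maraviroc near 300 nM; one replicate is shown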
Yeast UUG start = modulators of yeast start codon fidelity, primary screen, whole organism, S. cerevisiae, single point, plate reader; S. cerevisiae UUG-firefly luciferase reporter, luminescence/redox ratio; activity score, % at 18.7 µM; 0.13% of 350,000 active;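 active means replicate mean at a twofold rise or more, about +100% in these data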;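 further: firefly luciferase made from a UUG start codon reports start codon fidelity; reporter light over untreated wells divided by growth signal over untreated wells; some hits fall short of that in this replicate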
Active calls of the source: *; [ ] = remark or other dose. Some of the compounds tested; rates above refer to the full screens.

Yeast UUG start,HIV Env fusion,SMILES
-8.3,-7.6[16.7 µM],C[C@H]1CN([C@@H](C)CO)C(=O)Cc2cc(NC(=O)Nc3ccc(F)cc3)ccc2O[C@@H]1CN(C)C(=O)Nc1ccc2c(c1)OCO2
9.5,-3.6[16.7 µM],C[C@@H]1CN([C@@H](C)CO)S(=O)(=O)c2ccc(C#CCN(C)C)cc2O[C@@H]1CN(C)C(=O)c1ccccc1F
9.6,-1.5[16.7 µM],COCC(=O)N(C)C[C@@H]1Oc2cc(-c3cncnc3)ccc2S(=O)(=O)N([C@@H](C)CO)C[C@H]1C
-10.7,0.0[16.7 µM],O=C(N[C@H]1CC[C@@H](CCn2cc(-c3cccnc3)nn2)O[C@@H]1CO)c1ccccc1F
-5.6,19.6[16.7 µM],C[C@@H]1CN([C@H](C)CO)C(=O)c2cc(C#CCN(C)C)cnc2O[C@H]1CN(C)C(=O)c1ccc(F)cc1
42.6,41.2[16.7 µM],C[C@H](CO)N1C[C@H](C)[C@@H](CN(C)Cc2ccc(C(F)(F)F)cc2)Oc2c(NS(=O)(=O)c3cccs3)cccc2C1=O
-11.9,37.2[16.7 µM],CCCC#Cc1cnc2c(c1)C(=O)N([C@@H](C)CO)C[C@@H](C)[C@H](CN(C)C(=O)C1CC1)O2
-6.5,-105.5[16.7 µM],C[C@@H]1CCCCO[C@H](CN(C)C(=O)Nc2ccc(F)cc2)[C@@H](C)CN([C@@H](C)CO)C(=O)c2cc(NS(=O)(=O)c3ccc(Cl)cc3)ccc2O1
-3.8,2.8[16.7 µM],COc1ccccc1C(=O)Nc1ccc2c(c1)C(=O)N(C)C[C@H](OC)[C@H](C)CN[C@@H](C)CO2
-14.1,-13.2[16.7 µM],C[C@H](CO)N1C[C@H](C)[C@H](CN(C)CC2CC2)Oc2cc(C#C[C@@H](C)O)ccc2S1(=O)=O

Yeast UUG start,HIV Env fusion,SMILES
0.2,15.0[16.7 µM],CCCNC(=O)N[C@@H]1CC[C@H](CCn2cc(C3CCCC3)nn2)O[C@@H]1CO
-7.1,-6.0[16.7 µM],O=C(C[C@@H]1CC[C@@H](NC(=O)Cc2ccccn2)[C@H](CO)O1)NCCc1ccccc1
-5.3,-9.4[16.7 µM],COc1ccc2ccccc2c1-c1c(OC)ccc2ccccc12
24.9,-7.7[16.7 µM],C[C@@H]1CN([C@@H](C)CO)C(=O)c2cc(C#CC3CC3)cnc2O[C@@H]1CN(C)C(=O)c1ccccc1
1.6,-10.3[16.7 µM],C[C@@H]1CN([C@@H](C)CO)S(=O)(=O)c2ccc(C#CC3CC3)cc2O[C@@H]1CN(C)CC1CC1
-6.9,4.4[16.7 µM],C[C@H]1CN([C@@H](C)CO)S(=O)(=O)c2ccc(-c3cncnc3)cc2O[C@H]1CN(C)C(=O)C1CCC1
-1.7,4.2[16.7 µM],CC(=O)N(C)C[C@@H]1Oc2ncc(C#Cc3cccnc3)cc2C(=O)N([C@@H](C)CO)C[C@H]1C
-6.5,-10.0[16.7 µM],COc1cccc(S(=O)(=O)Nc2ccc3c(c2)[C@@H]2C[C@@H](CC(=O)N[C@@H](C)c4ccccc4)O[C@H](CO)[C@@H]2O3)c1
-3.8,-28.1[16.7 µM],CC(=O)N(C)C[C@H]1Oc2ncc(C#Cc3ccncc3)cc2C(=O)N([C@@H](C)CO)C[C@H]1C
26.2,3.4[16.7 µM],O=C(C[C@H]1C=C[C@@H](NC(=O)Nc2ccccc2)[C@H](CO)O1)NCc1cccc(F)c1

Yeast UUG start,HIV Env fusion,SMILES
19.6,-26.0[16.7 µM],C[C@H](CO)N1C[C@H](C)[C@H](CN(C)CC2CC2)Oc2cc(-c3ccc(F)cc3)ccc2S1(=O)=O
-9.9,8.9[16.7 µM],C[C@H]1CCCCO[C@@H](CN(C)C(=O)Nc2ccc(C(F)(F)F)cc2)[C@@H](C)CN([C@@H](C)CO)C(=O)c2cc(NC(=O)Nc3ccccc3)ccc2O1
-6.1,17.2[16.7 µM],CNC(=O)C[C@H]1CC[C@H]2[C@H](COc3ccc(NC(=O)c4cccs4)cc3C(=O)N2C)O1
0.5,-1.2[16.7 µM],C[C@@H]1CN([C@H](C)CO)C(=O)Cc2cc(NC(=O)CCCCCC(=O)Nc3ccccc3N)ccc2O[C@H]1CN(C)S(=O)(=O)c1cn(C)cn1
-0.5,-3.0[16.7 µM],C[C@@H](O)C#Cc1cnc2c(c1)C(=O)N([C@@H](C)CO)C[C@H](C)[C@@H](CN(C)Cc1ccc(-c3ccccc3)cc1)O2
-5.5,-27.6[16.7 µM],C[C@H]1CN([C@@H](C)CO)C(=O)c2cc(-c3ccc(C(=O)N(C)C)cc3)cnc2O[C@H]1CN(C)C(=O)C1CC1
13.8,-16.1[16.7 µM],COc1ccc(CN(C)C[C@H]2OCCCC[C@@H](C)Oc3ccc(NS(=O)(=O)c4ccc(F)cc4)cc3C(=O)N([C@@H](C)CO)C[C@@H]2C)cc1
-6.5,11.9[16.7 µM],C[C@H](CO)N1C[C@H](C)[C@H](CN(C)C(=O)C2CCCCC2)Oc2ncc(-c3cccc(F)c3)cc2C1=O
-21.0,12.5[16.7 µM],C[C@@H]1CCCCO[C@H](CN(C)C(=O)Nc2ccc(F)cc2)[C@@H](C)CN([C@@H](C)CO)C(=O)c2cc(NC(=O)Nc3ccc(C(F)(F)F)cc3)ccc2O1
1.3,-5.0[16.7 µM],C[C@H]1CCCCO[C@H](CN(C)S(=O)(=O)c2ccc(Cl)cc2)[C@@H](C)CN([C@@H](C)CO)C(=O)c2cc(NC(=O)C3CCCCC3)ccc2O1

Taken from above (5 entries):
Yeast UUG start,HIV Env fusion,SMILES
-9.9,8.9[16.7 µM],C[C@H]1CCCCO[C@@H](CN(C)C(=O)Nc2ccc(C(F)(F)F)cc2)[C@@H](C)CN([C@@H](C)CO)C(=O)c2cc(NC(=O)Nc3ccccc3)ccc2O1
-6.1,17.2[16.7 µM],CNC(=O)C[C@H]1CC[C@H]2[C@H](COc3ccc(NC(=O)c4cccs4)cc3C(=O)N2C)O1
0.5,-1.2[16.7 µM],C[C@@H]1CN([C@H](C)CO)C(=O)Cc2cc(NC(=O)CCCCCC(=O)Nc3ccccc3N)ccc2O[C@H]1CN(C)S(=O)(=O)c1cn(C)cn1
-0.5,-3.0[16.7 µM],C[C@@H](O)C#Cc1cnc2c(c1)C(=O)N([C@@H](C)CO)C[C@H](C)[C@@H](CN(C)Cc1ccc(-c3ccccc3)cc1)O2
-5.5,-27.6[16.7 µM],C[C@H]1CN([C@@H](C)CO)C(=O)c2cc(-c3ccc(C(=O)N(C)C)cc3)cnc2O[C@H]1CN(C)C(=O)C1CC1

(more compounds)
Yeast UUG start,HIV Env fusion,SMILES
11.0,-6.5[16.7 µM],C[C@@H]1CCCCO[C@@H](CN(C)C(=O)CCCN(C)C)[C@H](C)CN([C@@H](C)CO)C(=O)c2cc(NS(=O)(=O)c3cn(C)cn3)ccc2O1
12.2,-8.2[16.7 µM],Cc1ccc(S(=O)(=O)Nc2cccc3c2O[C@H](CN(C)S(=O)(=O)c2cn(C)cn2)[C@H](C)CN([C@H](C)CO)C3=O)cc1
-6.7,-5.6[16.7 µM],CCC(=O)Nc1ccc2c(c1)C(=O)N(C)C[C@@H](OC)[C@H](C)CN(C(=O)c1ccncc1)[C@@H](C)CO2
0.0,55.3*[16.7 µM],C[C@@H]1CN([C@@H](C)CO)S(=O)(=O)c2ccc(/C=C/c3ccccc3)cc2O[C@@H]1CN(C)C(=O)C1CC1
-10.7,22.6[16.7 µM],Cc1noc(C)c1S(=O)(=O)Nc1ccc2c(c1)C(=O)N([C@@H](C)CO)C[C@H](C)[C@@H](CN(C)C(=O)Nc1ccc(C(F)(F)F)cc1)OCCCC[C@@H](C)O2
-17.0,43.9[16.7 µM],Cc1noc(C)c1S(=O)(=O)N(C)C[C@@H]1OCCCC[C@@H](C)Oc2ccc(NC(=O)Nc3ccccc3)cc2C(=O)N([C@H](C)CO)C[C@H]1C
1.1,5.1[16.7 µM],C[C@H]1CN([C@@H](C)CO)C(=O)c2cc(-c3cccc(C(=O)N(C)C)c3)cnc2O[C@H]1CN(C)S(=O)(=O)c1ccc(F)cc1
3.3,7.7[16.7 µM],C[C@@H]1CN([C@H](C)CO)C(=O)c2cc(-c3ccncc3)cnc2O[C@@H]1CN(C)C(=O)CN1CCOCC1
-7.7,0.8[16.7 µM],C[C@H](CO)N1C[C@H](C)[C@@H](CN(C)C(=O)Nc2ccc(F)cc2)Oc2ccc(NC(=O)Nc3ccc4c(c3)OCO4)cc2C1=O
16.5,-11.1[16.7 µM],CC(=O)N(C)C[C@H]1Oc2cc(C#CC3CCCCC3)ccc2S(=O)(=O)N([C@H](C)CO)C[C@@H]1C

Yeast UUG start,HIV Env fusion,SMILES
7.5,22.4[16.7 µM],C[C@@H]1CN([C@H](C)CO)C(=O)Cc2cc(NC(=O)Nc3ccc(C(F)(F)F)cc3)ccc2O[C@H]1CN(C)CC1CC1
16.1,13.4[16.7 µM],Cc1ccc(-c2ccc3c(c2)O[C@H](CN(C)C(=O)C2CC2)[C@@H](C)CN([C@H](C)CO)S3(=O)=O)cc1
-10.1,3.1[16.7 µM],COc1ccc(S(=O)(=O)Nc2cccc3c2O[C@H](CN(C)C(=O)Nc2ccc(C(F)(F)F)cc2)[C@H](C)CN([C@@H](C)CO)C3=O)cc1
23.2,-22.5[16.7 µM],C[C@@H]1CCCCO[C@@H](CN(C)CC2CCCCC2)[C@H](C)CN([C@H](C)CO)C(=O)c2cc(NS(=O)(=O)c3ccc(Cl)cc3)ccc2O1
8.3,3.1[16.7 µM],CCC(=O)N(C)C[C@@H]1Oc2cc(C3=CCCC3)ccc2S(=O)(=O)N([C@@H](C)CO)C[C@H]1C
91.3*,-3.0[16.7 µM],O=C(Nc1ccc(Cl)cc1)N[C@H]1CC[C@H](CCNC(=O)c2ccccc2F)O[C@H]1CO
23.9,-11.7[16.7 µM],CC(C)NC(=O)Nc1ccc2c(c1)C(=O)N([C@H](C)CO)C[C@@H](C)[C@@H](CN(C)Cc1ccc(C(=O)O)cc1)O2
-11.3,8.4[16.7 µM],C[C@H](CO)N1C[C@H](C)[C@H](CN(C)C(=O)Nc2ccc(C(F)(F)F)cc2)Oc2ccc(NC(=O)CCCCCC(=O)Nc3ccccc3N)cc2CC1=O
-10.3,-13.5[16.7 µM],C/C=C/c1cnc2c(c1)C(=O)N([C@H](C)CO)C[C@@H](C)[C@H](CN(C)Cc1ccncc1)O2
0.8,2.4[16.7 µM],COc1ccc(NC(=O)N(C)C[C@@H]2Oc3ccc(NC(=O)Nc4ccc5c(c4)OCO5)cc3CC(=O)N([C@@H](C)CO)C[C@@H]2C)cc1

Yeast UUG start,HIV Env fusion,SMILES
0.4,-4.0[16.7 µM],CNC[C@@H]1Oc2ncc(Br)cc2C(=O)N([C@@H](C)CO)C[C@H]1C
24.6,-5.0[16.7 µM],CN1C(=O)c2cc(NC(=O)Nc3ccccc3Cl)ccc2OC[C@H]2O[C@@H](CC(=O)O)CC[C@@H]21
5.8,2.5[16.7 µM],C[C@H](CO)N1C[C@H](C)[C@H](CN(C)S(=O)(=O)c2ccccc2)Oc2c(NS(=O)(=O)c3ccccc3)cccc2C1=O
-5.9,6.8[16.7 µM],C[C@@H]1CN([C@H](C)CO)C(=O)c2cccc(NC(=O)Nc3ccccc3)c2O[C@@H]1CN(C)C(=O)Nc1ccc2c(c1)OCO2
6.1,11.9[16.7 µM],O=C(CN1CCOCC1)NCC[C@@H]1CC[C@H](NC(=O)Nc2ccc(Cl)cc2)[C@H](CO)O1
3.9,-21.7[16.7 µM],COCC#Cc1cnc2c(c1)C(=O)N([C@H](C)CO)C[C@H](C)[C@H](CN(C)S(=O)(=O)c1ccccc1)O2
1.1,16.8[16.7 µM],C[C@H]1CN([C@@H](C)CO)C(=O)Cc2cc(NS(=O)(=O)c3ccc(F)cc3)ccc2O[C@H]1CN(C)S(=O)(=O)c1ccccc1
-0.6,12.2[16.7 µM],C[C@@H]1CN([C@H](C)CO)C(=O)Cc2cc(NS(=O)(=O)c3cccs3)ccc2O[C@@H]1CN(C)CC1CCCCC1
16.1,-11.0[16.7 µM],C[C@H](CO)N1C[C@H](C)[C@H](CN(C)Cc2ccccc2C(=O)O)Oc2ncc(C#CC3CC3)cc2C1=O
8.3,6.6[16.7 µM],CCCN(C)C[C@@H]1Oc2cc(C#CC3CCCCC3)ccc2S(=O)(=O)N([C@H](C)CO)C[C@@H]1C

Yeast UUG start,HIV Env fusion,SMILES
-6.2,-19.9[16.7 µM],C[C@H]1CCCCO[C@H](CN(C)S(=O)(=O)c2ccc(F)cc2)[C@@H](C)CN([C@@H](C)CO)C(=O)c2cc(NC(=O)NC3CCCCC3)ccc2O1
-8.7,-1.4[16.7 µM],O=C(CC1CC1)N[C@H]1CC[C@@H](CCNS(=O)(=O)c2ccc(Cl)cc2)O[C@@H]1CO
-16.8,9.3[16.7 µM],COc1ccc(NC(=O)Nc2ccc3c(c2)[C@H]2C[C@H](CC(=O)NCc4ccccc4F)O[C@@H](CO)[C@H]2O3)cc1
-1.2,-21.3[16.7 µM],C[C@@H]1CN([C@@H](C)CO)C(=O)Cc2cc(NC(=O)NC3CCCCC3)ccc2O[C@@H]1CN(C)Cc1ccc(Oc2ccccc2)cc1
-2.7,-18.3[16.7 µM],C[C@H](CO)N1C[C@H](C)[C@H](CN(C)CC2CCCCC2)OCCCC[C@H](C)Oc2ccc(NC(=O)CCC(F)(F)F)cc2C1=O
7.0,-2.3[16.7 µM],Cc1ccc(S(=O)(=O)NCC[C@H]2CC[C@H](NC(=O)c3cnccn3)[C@@H](CO)O2)cc1
-5.8,30.1[16.7 µM],Cc1noc(C)c1NC(=O)Nc1ccc2c(c1)C(=O)N([C@H](C)CO)C[C@H](C)[C@H](CN(C)S(=O)(=O)c1cn(C)cn1)OCCCC[C@H](C)O2
-7.1,11.0[16.7 µM],C[C@H](CO)N1C[C@H](C)[C@H](CN(C)C(=O)Nc2ccccc2)Oc2cc(C#Cc3ccccc3)ccc2S1(=O)=O
-10.0,8.0[16.7 µM],C[C@H]1CN([C@@H](C)CO)C(=O)c2cc(NC(=O)CCC(F)(F)F)ccc2O[C@H]1CN(C)CC1CC1
